Bioassay records as filed in PubChem.
PGK inhibitor: qHTS Assay to Find Inhibitors of Phosphoglycerate Kinase. Phosphoglycerate kinase, glycosomal (Trypanosoma brucei brucei), P07378. PGK/GAPDH coupled, Kinase-Glo luminescence, 60 min. Potency, µM (titrated, usually from 57.5 µM), for the others: at the top dose activity change, negative = inhibition, hits mostly inhibitors. actives 0.043% (n = 380,000); note: % is set by controls: 0 for no effect and ±100 for the full control effect; nearly all actives have a fitted effect of over 60% in size
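Recombinant glycosomal PGK reaction used 1,3-bisphosphoglycerate generated in-well by GAPDH (100nM final) in 100mM TEA pH 7.6, 5mM MgCl2, 0.01% Tween-20. After 60 minutes at room temperature, ATP was read by Kinase-Glo Plus luminescence end-point.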
RGS4 inh: Inhibitors of Regulator of G Protein Signaling (RGS) 4: qHTS. Regulator of G-protein signaling 4 (Homo sapiens), P49798. Transcreener GDP fluorescence polarization, RGS4-accelerated GTP hydrolysis. Potency, µM (top dose mostly 114 µM), for the others: top-dose activity change, negative = inhibition, actives largely listed as inhibitors. actives 0.039% (n = 390,000); note: % is set by controls: 0 for no effect and ±100 for the full control effect; nearly all actives have a fitted effect of over 75% in size; some results filed as inactive show a strong effect at the top dose
Target sequence (P49798 whole entry, looked up): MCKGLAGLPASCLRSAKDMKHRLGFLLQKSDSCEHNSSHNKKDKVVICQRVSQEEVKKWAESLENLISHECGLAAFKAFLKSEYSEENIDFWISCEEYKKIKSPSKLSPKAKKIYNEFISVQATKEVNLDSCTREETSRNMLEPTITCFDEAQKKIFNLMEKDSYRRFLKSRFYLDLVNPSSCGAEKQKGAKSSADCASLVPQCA
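MLSMR compounds (23 nl, pin-transferred) preincubated 10 min at room temperature with a 500nM (2x) first reagent, then RGS4 at 900nM (2x) plus Transcreener GDP mix added; fluorescence polarization (620/688 nm) read before and after 90 min at 30 °C.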
GLS inhibitor: qHTS for Inhibitors of Glutaminase (GLS). actives 0.21% (n = 410,000). Potency, µM (doses to about 45.5 µM), for the others: at the highest dose activity change, negative = inhibition, usual class: inhibitors. Glutaminase kidney isoform, mitochondrial (Homo sapiens), O94925. GLS enzymatic activity, qHTS titration; note: % is set by controls: 0 for no effect and ±100 for the full control effect
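Glutamate formation by hKGA was monitored fluorometrically using coupled glutamate oxidase, HRP and Amplex Red. Substrate was added as 1 mM L-glutamine solution; incubation was 30 min at RT after an initial read.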
ERG Ets-DNA blk: qHTS for Small Molecule Inhibitors of the ERG Ets/DNA interaction. fluorescence polarization, His-ERG Ets domain / labelled DNA. Potency, µM (doses to about 76.9 µM), for the others: top-dose FP activity, negative = inhibition, hits mostly inhibitors. AID 624246, 2012. actives 0.028% (n = 370,000); active = well fitted inhibition curve with a large enough effect in the polarisation, with a control signal flat; inconclusive = small, poorly fitted or top-dose-only effect, or effect the other way, or a change in a side signal; inactive = no such curve, though single readings can be large or run the other way; the % refers to the polarisation;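 note: polarization taken with two DNA probes labelled with fluorescein and Texas red; % of control where 0% means no effect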
Target sequence (P11308 whole entry, looked up, the tested form may be a part): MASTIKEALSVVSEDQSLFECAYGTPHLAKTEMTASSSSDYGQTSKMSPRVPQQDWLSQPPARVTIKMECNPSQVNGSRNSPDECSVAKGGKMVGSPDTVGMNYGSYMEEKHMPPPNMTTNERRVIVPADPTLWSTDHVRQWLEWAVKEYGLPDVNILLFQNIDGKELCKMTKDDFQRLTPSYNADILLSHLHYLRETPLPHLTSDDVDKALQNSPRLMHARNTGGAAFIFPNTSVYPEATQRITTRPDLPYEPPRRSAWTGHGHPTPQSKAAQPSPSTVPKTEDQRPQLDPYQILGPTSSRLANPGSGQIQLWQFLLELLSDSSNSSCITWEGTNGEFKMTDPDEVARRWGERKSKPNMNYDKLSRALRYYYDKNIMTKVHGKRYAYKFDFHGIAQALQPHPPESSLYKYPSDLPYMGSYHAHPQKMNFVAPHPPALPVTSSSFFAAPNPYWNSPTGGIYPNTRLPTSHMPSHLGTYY
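His-tagged ERG Ets domain (1 uM in the protein solution; 300mM KCl, 50mM Tris-HCl, 1mM EDTA, 1mM DTT, pH 7.5) received compound, then a probe mix of 5 nM fluorescein-DNA and 100nM Texas-615-DNA. Fluorescence polarization was read for both dyes.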
12-LOX inh: Primary qHTS assay for inhibitors of human arachidonate 12S-lipoxygenase (ALOX12): Round 2; actives 1.1% (n = 580,000); AID 1671190, 2021; purified 12hLO, xylenol orange hydroperoxide absorbance; Potency, µM (top dose mostly 108 µM), inactives show at the top dose activity change, negative = inhibition, most hits filed as inhibitors; Polyunsaturated fatty acid lipoxygenase ALOX12 (Homo sapiens), P18054; note: % is set by controls: 0 for no effect and ±100 for the full control effect
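Purified human 12hLO (150 nM final) in 25 mM Hepes, 0.01% Triton X-100, pH 7.0 was preincubated 15 min at room temperature with compound. Then 40 uM arachidonic acid was added, 30 min. Hydroperoxide was read by Fe-XO absorbance ratio 573/405 nm.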
Pin1 inh: qHTS Assay to Find Inhibitors of Pin1. Peptidyl-prolyl cis-trans isomerase NIMA-interacting 1 (Homo sapiens), Q13526. actives 0.009% (n = 390,000). Pin1 FP peptide displacement, HiFluor488, 10 min. Potency, µM (series often up to 115 µM), inactives show top-dose activity, negative = inhibition, most hits filed as inhibitors; active = well fitted inhibition curve with a large enough effect in the polarisation, with a control signal flat, not every such curve was filed as active; inconclusive = small, poorly fitted or top-dose-only effect, or effect the other way, or a change in a side signal; inactive = no such curve, though single readings can be large or run the other way; the % refers to the polarisation; note: % is set by controls: 0 for no effect and ±100 for the full control effect
Target sequence (Q13526 whole entry, looked up): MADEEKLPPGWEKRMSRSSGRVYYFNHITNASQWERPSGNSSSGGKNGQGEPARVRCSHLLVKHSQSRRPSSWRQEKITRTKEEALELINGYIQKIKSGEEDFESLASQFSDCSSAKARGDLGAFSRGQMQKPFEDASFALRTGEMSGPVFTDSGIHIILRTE
rTrxR1 inhibitor: qHTS Assay for Inhibitors of Mammalian Selenoprotein Thioredoxin Reductase 1 (TrxR1): qHTS; Thioredoxin reductase 1, cytoplasmic (Rattus norvegicus), O89049; recombinant rTrxR1, NADPH fluorescence consumption, selenite substrate; Potency, µM (top dose mostly 114 µM), for the others: at the highest dose activity change, negative = inhibition, hits mostly inhibitors; actives 1% (n = 390,000); note: % is set by controls: 0 for no effect and ±100 for the full control effect; nearly all actives have a fitted effect of over 65% in size
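Rat TrxR1 (90 nM in the dispensed reagent) was pre-reduced with 400 uM NADPH for 5 min at room temperature, then incubated with compound for 15 min. After 400 uM selenite was added, NADPH fluorescence (Ex 340/Em 450 nm) was followed for 8 min.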
* = called active by the depositor; i = inactive; ? = inconclusive; · = not tested or not shown; [ ] = remark or other dose. Unless noted, calls come from the whole dose curve; as a rule, active = well fitted curve in the direction sought with a large enough effect; inconclusive = small, poorly fitted or top-dose-only effect, or another doubt; inactive = no such curve, though single readings can be large; an effect the other way counts as inactive or inconclusive. Potency is the fitted concentration of half-maximal effect. Not all compounds are listed. The share of hits here may be higher or lower than overall.

Short forms: A = PGK inhibitor; B = RGS4 inh; C = GLS inhibitor; D = ERG Ets-DNA blk; E = 12-LOX inh; F = Pin1 inh; G = rTrxR1 inhibitor
> Cc1ccc(N2C(=O)C3CCCN3C2=S)c(C)c1 (stereo unspecified)
  A: -4% | B: -4% | C: -6% | D: -8% | E: -2% | F: 0% | G: 16%
> O=C(COC(=O)c1c2c(nc3ccccc13)CCCC2)Nc1ccc2c(c1)OCO2
  A: i | B: -19% | C: -8% | D: -5% | E: 175%[activator] | F: 8% | G: 2%
> CCCCCNCC(=O)Nc1cc(C(F)(F)F)ccc1OCCOC
  A: 1% | B: 1% | C: 0% | D: 5% | E: -18% | F: 4% | G: 10%
> O=C(/C=C/c1ccccc1)NC(=S)NNC(=O)c1cnccn1
  A: -7% | B: -45% | C: 7% | D: -7% | E: -49% | F: ? | G: -43%
> CC(C)N(C(=O)c1ccc2nc(-c3ccccc3)c(-c3ccccc3)nc2c1)C(C)C
  A: i | B: -2% | C: 10% | D: 7% | E: -21% | F: -3% | G: 11%[57.1 µM]
> COc1ccccc1CNc1ncc(-c2ccccc2)n1C
  A: -4% | B: 20% | C: 2% | D: 9% | E: ? | F: -5% | G: 16%
> COc1cccc(CN(C)S(=O)(=O)c2cccs2)c1
  A: -6% | B: -4% | C: -9% | D: -2% | E: -7% | F: 16% | G: 9%
> CCCCN(C)C(=O)C1CCN(C/C(C)=C/c2ccccc2)CC1
  A: 2% | B: ? | C: 0% | D: 2% | E: ? | F: -12% | G: -8%
> COc1ccc(C(=O)N2CCN(Cc3ccc4c(c3)OCO4)CC2)cc1OC
  A: -2% | B: -3% | C: 11% | D: -6% | E: ? | F: -1% | G: 8%
> CC1=C(C(=O)Nc2ccccn2)C(c2cccnc2)n2nnnc2N1 (stereo unspecified)
  A: · | B: -10% | C: 17% | D: · | E: 12% | F: -2% | G: 3%
> FC(F)(F)c1nc2ccccc2nc1N/N=C\c1ccccc1
  A: i | B: 21% | C: 12% | D: -2% | E: 23% | F: -4% | G: 1%[57.1 µM]
> CN(CCc1ccccn1)Cc1ccc(Cl)c(Cl)c1
  A: i | B: -13% | C: -7% | D: 8% | E: ? | F: 8% | G: 22%
> Cc1ccccc1N1CCN(Cc2ccc([N+](=O)[O-])o2)CC1
  A: -3% | B: -12% | C: 2% | D: ? | E: -82% | F: -17% | G: -26%
> COc1ccc(-n2c(SCC(=O)OC(C)C)nnc2-c2ccccn2)cc1
  A: -2% | B: 13% | C: -15% | D: -1% | E: -2% | F: -4% | G: 11%
> CCOc1ccc(OCCCCN(C)C)cc1
  A: -9% | B: 5% | C: 3% | D: -12% | E: ? | F: -9% | G: 16%
> COc1ccc(NC(=O)CCCNS(=O)(=O)c2cccs2)cc1
  A: 3% | B: -14% | C: 2% | D: 7% | E: 2% | F: 1% | G: 7%
> CCC1=NN(C(=O)c2ccc([N+](=O)[O-])cc2)C(O)(c2ccccc2)C1 (stereo unspecified)
  A: -18% | B: -2% | C: 5% | D: 5% | E: ? | F: 2% | G: 12%
> O=C(CNCC1CCCO1)NCc1ccco1 (stereo unspecified)
  A: i | B: -49% | C: -13% | D: -4% | E: -14% | F: -1% | G: -45%
> CCn1c(C)nc2cc(C(=O)N/N=C(\C)c3ccc(N4CCOCC4)cc3)ccc21
  A: -2% | B: 11%[56.9 µM] | C: 5% | D: 5% | E: 7% | F: 2% | G: 5%
> Clc1ccc(SCCOCCN2CCOCC2)cc1
  A: -2% | B: 11% | C: -3% | D: -8% | E: -12% | F: -8% | G: 23%
> CC(c1ccccc1)C1CC(=O)N(C2CCCCC2)C1=O (stereo unspecified)
  A: 1% | B: 22% | C: · | D: -6% | E: -4% | F: 2% | G: -5%
> COc1ccc(-c2ccc(=O)[nH]n2)cc1
  A: -3% | B: 17% | C: -2% | D: 4% | E: 27% | F: -1% | G: 10%
> CCC(Cn1nnc2ccccc2c1=O)NC(=O)Nc1ccccc1OC (stereo unspecified)
  A: -2% | B: 5% | C: -1% | D: 3% | E: -22% | F: -2% | G: 26%
> CCN(CC)C(=O)CN1CCN(Cc2ccc3c(c2)OCO3)CC1
  A: -3% | B: -30% | C: -16% | D: -5% | E: ? | F: -6% | G: 0%[57.1 µM]
> Fc1cccc(CN2CCc3nc(Nc4ccc5c(c4)OCCO5)ncc3C2)c1F
  A: -3% | B: -11% | C: 14% | D: 0% | E: -18% | F: -3% | G: 7%[57.1 µM]
> Cc1ccc(C)c(S(=O)(=O)C(C#N)c2nc3ccccc3nc2N2CCCC2)c1 (stereo unspecified)
  A: 7% | B: 23% | C: -4% | D: -15% | E: -13% | F: 6% | G: -15%[57.1 µM]
> COc1cccc(N2CCN(Cc3nc(N)nc(N4CCCc5ccccc54)n3)CC2)c1
  A: 0% | B: 7% | C: 13% | D: -4% | E: 11% | F: -7% | G: 9%[57.1 µM]
> CC(=O)Nc1ccc(S(=O)(=O)N(C)CC(=O)NNc2c(F)c(F)cc(F)c2F)cc1
  A: -8% | B: 15% | C: 10% | D: -16% | E: -10% | F: -3% | G: 11%
> COc1cc(OC)c(OC)cc1CN1CCN(C(=O)c2cccc3ccccc23)CC1
  A: -6% | B: -7% | C: 7% | D: 8% | E: ? | F: ? | G: 23%
> O=C(Nc1nnc(-c2ccco2)o1)C1CC1
  A: -10% | B: 28% | C: 2% | D: 6% | E: -16% | F: 0% | G: 20%
> COc1ccccc1CC(=O)Nc1ccc(-c2noc(COc3ccc(Cl)c(C)c3)n2)cc1
  A: -2% | B: -43% | C: -1% | D: 2% | E: 1% | F: 30% | G: -4%
> COc1cccc(N2CCN(C(=O)c3ccc(CSc4nc5ccncc5[nH]4)cc3)CC2)c1
  A: -10% | B: 8% | C: 16% | D: 11% | E: ? | F: -1% | G: 5%[57.1 µM]
> CCN(CC)C(=O)c1[nH]cnc1C(=O)N[C@@H](C)C(=O)OC(C)(C)C
  A: 2% | B: 11% | C: 7% | D: -10% | E: -1% | F: 1% | G: 12%

9 of the compounds above, with values under each structure.
Each structure is followed by: PGK inhibitor	RGS4 inh	GLS inhibitor	ERG Ets-DNA blk	12-LOX inh	Pin1 inh	rTrxR1 inhibitor
COc1ccc(-c2ccc(=O)[nH]n2)cc1
 : -3%	17%	-2%	4%	27%	-1%	10%
CCC(Cn1nnc2ccccc2c1=O)NC(=O)Nc1ccccc1OC (stereo unspecified)
 : -2%	5%	-1%	3%	-22%	-2%	26%
CCN(CC)C(=O)CN1CCN(Cc2ccc3c(c2)OCO3)CC1
 : -3%	-30%	-16%	-5%	?	-6%	0%[57.1 µM]
Fc1cccc(CN2CCc3nc(Nc4ccc5c(c4)OCCO5)ncc3C2)c1F
 : -3%	-11%	14%	0%	-18%	-3%	7%[57.1 µM]
Cc1ccc(C)c(S(=O)(=O)C(C#N)c2nc3ccccc3nc2N2CCCC2)c1 (stereo unspecified)
 : 7%	23%	-4%	-15%	-13%	6%	-15%[57.1 µM]
COc1cccc(N2CCN(Cc3nc(N)nc(N4CCCc5ccccc54)n3)CC2)c1
 : 0%	7%	13%	-4%	11%	-7%	9%[57.1 µM]
CC(=O)Nc1ccc(S(=O)(=O)N(C)CC(=O)NNc2c(F)c(F)cc(F)c2F)cc1
 : -8%	15%	10%	-16%	-10%	-3%	11%
COc1cc(OC)c(OC)cc1CN1CCN(C(=O)c2cccc3ccccc23)CC1
 : -6%	-7%	7%	8%	?	?	23%
O=C(Nc1nnc(-c2ccco2)o1)C1CC1
 : -10%	28%	2%	6%	-16%	0%	20%
